# 2A Renilla = Primary qHTS Assay for Foot and Mouth Disease Virus Antivirals against NCGC Sytravon and CBC Compound Libraries: Renilla Luciferase Signal | HEK cells with a luciferase reporter of 2A StopGo recoding | 0.32% of 120,000 active | AID 1745857, 2022 | Potency, µM (doses to about 57.5 µM), inactives show at the highest dose signal change, negative = less light; active means well fitted falling curve with a large enough effect; inconclusive means small, poorly fitted or top-dose-only effect; inactive means no such curve, though single readings can be large or run the other way; also: nearly all actives have a fitted effect of over 55% in size; overnight with compound
# StopGo FLuc = Primary qHTS Assay for Foot and Mouth Disease Virus Antivirals against NCGC Sytravon and CBC Compound Libraries: Firefly Luciferase Signal; HEK cells with a luciferase reporter of 2A StopGo recoding; Potency, µM (series often up to 57.5 µM), inactives show at the top dose signal change, negative = less light; 0.23% of 120,000 active; AID 1745856, 2022; active = well fitted falling curve with a large enough effect; inconclusive = small, poorly fitted or top-dose-only effect; inactive = no such curve, though single readings can be large or run the other way; also: nearly all actives have a fitted effect of over 60% in size; overnight with compound
# Active calls of the source: *; ? = inconclusive; & = joins results of further samples; [ ] = remark or other dose. % is scaled to controls: 0 for no effect and ±100 for the full control effect; potency is read from the fitted curve at half-maximal effect. This is a subset; the hit share may differ from the screen's.
SMILES,2A Renilla,StopGo FLuc
COc1cccc(NC(=O)CSc2nc3c(oc4ccccc43)c(=O)n2Cc2ccco2)c1,85%[activator],-11%
Cc1cccc(NC(=O)N2CCN(C(=O)c3nsc4ccccc34)CC2)c1C,-17%,-22%
Cn1c(=O)c(=O)n(C)c2cc(S(=O)(=O)N3CCN(c4ccccc4)CC3)ccc21,-1%,11%
CC(NC(=O)c1ccc2ccccc2n1)c1cccs1 (stereo not given),20%,46%[activator]
O=C(OCC1CCCO1)c1ccc2c(c1)N(Cc1c(F)cccc1Cl)C(=O)c1ccccc1S2(=O)=O (stereo not given),-11%,-12%
Cc1ccc(F)cc1NCc1ccccc1C#N,26%,31%[activator]
Cc1cc(NC(=O)c2ccccc2Cl)ccc1NC(=O)c1ccccc1,-3%,2%
CCCN(CCC)CCNC(=O)CS(=O)(=O)Cc1nc(-c2ccccc2F)oc1C,-7%,-11%
Cc1ccccc1C(=O)Nc1ccc2nc(N3CCCCC3)cc(C)c2c1,-5%&33%,6%&97%
COc1ccc(-c2cnc(C)o2)cc1S(=O)(=O)Nc1ccc(C)c(N(C)C)c1,321%[activator],-1%
N#CC1(NC(=O)CSc2cc(C(N)=O)c3ccccc3n2)CCCCCC1,30%,7%
Cc1ccc(NC(=O)c2nc3ccccc3n(C)c2=O)cc1C,3%,164%[activator]
COc1ccc(C(=O)NC2=Nc3ccccc3N=C(C)C2c2ccccc2)cc1 (stereo not given),235%[activator],279%[activator]
Cc1cc(C)c(O)c(-c2n[nH]c3c2C(c2ccccc2F)N(CCO)C3=O)c1 (stereo not given),16%,-4%
O=C(CSc1nc2ccsc2c(=O)n1Cc1ccccc1Cl)NCc1ccc(Cl)cc1,-16%,-18%
CC(C)(C)CC(=O)NCCCCNC(=O)CC(C)(C)C,-7%[1.06 µM],5%
COc1ccc(NC(=O)Cn2c(C(=O)c3ccc(Cl)cc3)nc3ccccc32)cc1OC,10%,17%
CC1CCc2nc(NC(=O)Cc3n[nH]c(=O)c4ccccc34)sc2C1 (stereo not given),0%,55%[activator]
Cn1c(=O)[nH]c(=O)c2c1nc(CN1CCOCC1)n2Cc1ccc(Cl)c(Cl)c1,-10%,-6%
Cc1cc2ccccc2n1CC(=O)N1CCN(C=O)CC1,-9%,-9%
N#Cc1nc(-c2cccc3ccccc23)oc1N1CCN(c2ccccc2)CC1,-15%,-4%
CCc1ccccc1N1CC(c2nc3ccccc3n2CCC2CCCCC2)CC1=O (stereo not given),?,?
Cc1ccc(NC(=O)Cc2nc(CSc3nncn3-c3ccccc3)cs2)cc1,15%,54%[activator]
Cc1cc(N2CCN(Cc3nc(C4CC4)no3)CC2)nc(C(C)C)n1,-24%,-24%
NC(=O)CN1CCC(NC(=O)c2ccc(Cl)cc2)CC1,4%,-10%
CCCCN(Cc1ccccc1)C(=O)CN(C)S(=O)(=O)c1ccc2c(c1)c(=O)n(C)c(=O)n2C,0%,-9%
COc1cc(CC(=O)NCc2cccc(C(F)(F)F)c2)cc(OC)c1OC,0%,7%
CC(NC(=O)c1cc(F)ccc1Br)C1CC2CCC1C2 (stereo not given),26%,0%
COc1ccc(-c2nc(CN3CCN(C(=O)NCCc4ccccc4)CC3)c(C)o2)cc1,?,?
CCOC(=O)C(Cc1c[nH]c2ccccc12)NC(=O)COc1ccc(Cl)cc1 (stereo not given),-3%,-17%

# Structural class: the entries above with an NH in an aromatic ring (four)
SMILES,2A Renilla,StopGo FLuc
Cc1cc(C)c(O)c(-c2n[nH]c3c2C(c2ccccc2F)N(CCO)C3=O)c1 (stereo not given),16%,-4%
CC1CCc2nc(NC(=O)Cc3n[nH]c(=O)c4ccccc34)sc2C1 (stereo not given),0%,55%[activator]
Cn1c(=O)[nH]c(=O)c2c1nc(CN1CCOCC1)n2Cc1ccc(Cl)c(Cl)c1,-10%,-6%
CCOC(=O)C(Cc1c[nH]c2ccccc12)NC(=O)COc1ccc(Cl)cc1 (stereo not given),-3%,-17%

# Remaining list, next part:
SMILES,2A Renilla,StopGo FLuc
CCC(C)C(=O)N1CCc2sccc2C1CC (stereo not given),20%,120%[activator]
COc1cccc2c(C)nc(Nc3nc(-c4ccccc4)cc(=O)[nH]3)nc12,166%[activator],407%[activator]
Cc1cc(C)cc(NC(=O)C(c2ccccc2)N2CCN(C(=O)C3CC3)CC2)c1 (stereo not given),4%,8%
O=C(CCc1ncc(-c2ccccc2F)o1)Nc1ccc(F)c(F)c1,2%,15%
Cc1ccc(NC2(c3nnnn3-c3ccc(C)cc3)CCCCC2)cc1,149%[activator],0%
COc1ccc(Cn2c(CCC(=O)Nc3ccc(C)c(C)c3)nc3cccnc32)cc1,-3%,-1%
CCOC(=O)c1sc2cccc(F)c2c1COC(=O)c1cccs1,6%,9%
COc1cc(Nc2nc(N)c(C(=O)c3cc(C)ccc3C)s2)cc(OC)c1,16%,38%[activator]
CCNc1c(NC(=O)Nc2ccccc2C)c(=O)oc2ccccc12,-7%,2%
CC(C)n1c(CNC(=O)c2ccccc2)nc2ccccc21,2%,13%
Cc1c(Cl)cccc1-c1ccc(CNCCSc2nnnn2-c2ccccc2)o1,-16%,-9%
Cc1ccccc1OCc1nc(C#N)c(NCc2ccccc2Cl)o1,24%,126%[activator]
CS(=O)(=O)c1ccc(Cl)c(C(=O)OCC(=O)c2ccc3c(c2)NC(=O)CO3)c1,6%,16%
Cc1ccc(CNC(=O)Nc2cccnc2)s1,-4%,0%
Clc1ccc(-c2noc(C34CC5CC(CC(C5)C3)C4)n2)cc1,22%,0%
CCN(C(=S)Nc1cc(S(=O)(=O)N(C)C)ccc1C)c1cccc2ccccc12,-7%,19%
CCN1CCN(CCOc2ccc3c(=O)c(-c4ccccc4)c(C)oc3c2)CC1,21%,0%
NC(=O)c1ccccc1NC(=O)c1cc2ccccc2oc1=O,21%,172%[activator]
O=C(OCc1ccccc1)c1ccc(O)cc1,30%,25%[11.5 µM]
COc1ccc(C(=O)Nc2c(N3CCCC3)c3ccccc3oc2=O)cc1OC,-8%,-1%

# An excerpt of these results, with values under each structure.
# Each structure is followed by: 2A Renilla | StopGo FLuc
NC(=O)c1ccccc1NC(=O)c1cc2ccccc2oc1=O
→ 21% | 172%[activator]
O=C(OCc1ccccc1)c1ccc(O)cc1
→ 30% | 25%[11.5 µM]

# Next records follow:
SMILES,2A Renilla,StopGo FLuc
CCOC(=O)c1ccccc1NC(=O)c1cc2ccc3cccnc3c2[nH]1,-2%,3%
O=C(CCC1CCCC1)N(Cc1ccc2cc[nH]c2c1)C1CC1,-17%,-26%
CCCCN(CC)C(=O)NNC(=O)C(C)Oc1ccc(C#N)cc1 (stereo not given),19%,0%
O=C(Cc1c(F)cccc1Cl)NCc1cccc(C(=O)Nc2ccccc2)c1,5%,-5%
CCN1CCCC1CNC(=O)c1n[nH]c(=O)c2ccccc12 (stereo not given),-14%,-7%
C=CCc1c(C)nc(Nc2nc(C)c3cc(C)cc(C)c3n2)[nH]c1=O,-5%,1%
CCn1cnnc1-c1cccc(NC(=O)c2ccc(Br)cc2)c1,-5%,108%[activator]
Cc1ccc(NC(=O)C2CCC(CNS(=O)(=O)c3cccc4nsnc34)CC2)c(Cl)c1 (stereo not given),-5%,-11%
Cc1ccc(-c2cnc(CCC(=O)N3CCC(CN4CCOCC4)CC3)o2)cc1C,-3%,71%[activator]
COc1ccccc1C1CC(=O)N(Cc2cccc(Cl)c2)c2c1c(C)nn2-c1nc(C)cc(C)n1 (stereo not given),-5%,-2%

# Two records drawn at random from those above, as already listed:
SMILES,2A Renilla,StopGo FLuc
CCCCN(CC)C(=O)NNC(=O)C(C)Oc1ccc(C#N)cc1 (stereo not given),19%,0%
O=C(CCC1CCCC1)N(Cc1ccc2cc[nH]c2c1)C1CC1,-17%,-26%

# Additional records
SMILES,2A Renilla,StopGo FLuc
COc1ccc(-n2ncc(C(=O)N3CCN(c4cc(C)ccc4C)CC3)c2C2CCN(C(=O)OC(C)(C)C)CC2)cc1,-6%,-14%
CCc1ccc(NC(=O)Cn2ccn(Cc3ccccc3OC)c(=O)c2=O)cc1,26%,-13%
COc1ccc(C(CC(=O)Nc2ccccn2)N2Cc3ccccc3C2=O)cc1OC (stereo not given),0%,-3%
Cc1ccc(C)c(Cn2c(=O)n(-c3ccccc3)c(=O)c3c4c(sc32)CCCC4)c1,-13%,-16%
COc1ccc(NC(=O)c2sc3nc(C)c(C(=O)Nc4ccc(C)cc4C)c(-c4ccc(C)o4)c3c2N)cc1,3%,-4%
COc1cccc(OCc2nc3ccccc3n2CCOc2ccc(C)cc2)c1,?,3%
COc1cc(/C=C(/CC(=O)O)c2nc3ccccc3s2)cc(OC)c1,3%,0%
Cc1nc2cc(NC(C)C(=O)Nc3cccc(Cl)c3Cl)ccc2o1 (stereo not given),7%,22%
CCOc1cc(C(=O)Nc2nc(C)cs2)ccc1OCc1ccncc1,11%,0%
Cc1c(C(=O)NC2CCS(=O)(=O)C2)nnn1-c1ccc(Cl)cc1 (stereo not given),11%,103%[activator]
Cc1cc(C)n(-c2nc3c(c(=O)n(CC(N)=O)c(=O)n3C)n2Cc2ccccc2C)n1,-6%,-15%
CN(C)c1cccc(C(=O)Nc2ccc(-c3nc4ccccc4s3)cc2)c1,-3%,24%
O=C1NC(c2ccccc2)(c2ccccc2)C(=O)N1COP(=O)(O)O,-3%,0%[11.5 µM]
COc1cccc(NC(=O)CSc2nc3cc(OC)c(OC)cc3c3nc(-c4ccccc4)nn23)c1,-14%,0%
COc1ccc(CCNC(=O)c2ccc3c(Cl)c4c(nc3c2)CCCC4)c(OC)c1,-10%,-21%
CC1CCCC(c2ccc(O)cc2)(c2ccc(O)cc2)C1 (stereo not given),-3%,1%
CCOc1ccc(NC(C)=O)cc1,-8%,-8%
CCCNC(=O)c1ccccc1NC(=O)c1nsc2ccccc12,11%,72%[activator]
COc1cccc(NC(=O)COc2nc(C(C)C)c3c(c2C#N)CCC3)c1,-6%,-12%
Cc1ccccc1CN1CCC(CNC(=O)Nc2cn(CC(C)C)c(=O)c3ccccc23)CC1,-17%,-14%
COc1ccc(OC)c2[nH]c(C(=O)N[C@@H](C)C(=O)Nc3ccc4c(c3)OCO4)cc12,-7%,83%[activator]
COc1cccc(C(=O)COC(=O)c2cc3c(s2)-c2ccccc2OC3)c1,21%,49%[activator]
CCc1ccc(NC(=O)c2sc3nc(C)c(Cl)c(C)c3c2N)cc1,2%,91%[activator]
CCCOc1cc(C)ccc1S(=O)(=O)Nc1cccnc1,30%,?
CN(C)c1ccc(CN(Cc2ccco2)C(=O)c2ccc(F)cc2)cc1,0%,0%
COc1cccc2cc(-c3nc4ccc(C)cc4[nH]3)c(=O)oc12,-3%,136%[activator]
Cc1ccc(-n2c(=O)c3c(C)c(C)sc3n(CC(=O)NCc3ccccc3)c2=O)cc1C,-8%,-17%
CN1CCN(C(=O)Nc2cccc(Cl)c2)c2cccnc21,0%,6%
COc1nc2ccccc2nc1N1CCC(C(=O)Nc2ccc(C)c(C)c2)CC1,-2%,7%
Cc1cc(C)c2nc(C)cc(Nc3cccc(C(=O)O)c3)c2c1,-9%,5%
Cc1c(C(=O)NCCc2ccc(Cl)cc2)sc2nc3n(c(=O)c12)CCCC3,-6%,19%
CCOC(=O)c1cnc(SCC(=O)Nc2cccc(Br)c2)nc1N,-23%,-23%
Cc1ccc(CNc2nc3ccccc3nc2NS(=O)(=O)c2cccc(Cl)c2)cc1,4%,29%
Cc1ccc2c(COC(=O)c3cc(S(=O)(=O)N4CCOCC4)ccc3C)cc(=O)oc2c1,-5%,2%
CCOCCCNC(=S)N1CCc2cc(OC)c(OC)cc2C1,1%,16%
CC(C)c1ccc(NC(=O)c2cnc(N3CCOCC3)c3ccccc23)cc1,-4%,0%
COc1cccc(CN2CCCCCC2c2cccs2)c1OC (stereo not given),12%,22%
O=C(/C=C/c1ccccc1)Nc1nc2n(n1)C(c1ccc(Cl)cc1)C=C(c1ccccc1)N2 (stereo not given),1%,20%
CCNc1oc(/C=C/c2cc(OC)c(OC)c(OC)c2)nc1C#N,14%,24%
COc1cc(NC(=O)Cn2c(NCc3ccccc3)nc3ccccc32)cc(OC)c1,6%,69%[activator]

# Profiles from above. Order of screens: 2A Renilla | StopGo FLuc
# CCOCCCNC(=S)N1CCc2cc(OC)c(OC)cc2C1 reads 1% | 16%
# CCOC(=O)c1cnc(SCC(=O)Nc2cccc(Br)c2)nc1N reads -23% | -23%
# Cc1c(C(=O)NCCc2ccc(Cl)cc2)sc2nc3n(c(=O)c12)CCCC3 reads -6% | 19%
# CCNc1oc(/C=C/c2cc(OC)c(OC)c(OC)c2)nc1C#N reads 14% | 24%
# Cc1ccc2c(COC(=O)c3cc(S(=O)(=O)N4CCOCC4)ccc3C)cc(=O)oc2c1 reads -5% | 2%

# New compounds follow:
SMILES,2A Renilla,StopGo FLuc
COc1ccc(OCC(=O)OCc2cc(=O)n3cc(C)sc3n2)cc1,-10%&1%,-9%&17%
Cc1occc1-c1nnc(SCc2cc(Cl)c3c(c2)OCCO3)o1,0%,32%[activator]
CCn1c(CN2CCN(c3ccccc3)CC2)nc2c1c(=O)n(C)c(=O)n2C,?,?
CC(C)(C)NCCC(=O)O,11%,3%
CC(C)CCN(CC(=O)NC(=O)NCc1ccco1)C1CC1,-12%,-6%
CC(C)c1ccc(NC(=O)CCn2cnc3c2c(=O)n(C)c(=O)n3C)cc1,0%,5%
Cc1cc(C)cc(NC(=O)c2cc3c(=O)n(Cc4ccco4)ccc3nc2C)c1,-10%,-11%
O=c1ccc(C(F)(F)F)cn1Cc1coc(-c2ccccc2)n1,3%,3%
Cc1ccc(C)c(-n2nnc(-c3nc(-c4ccc(Cl)cc4)no3)c2N)c1,5%,32%
CCC(CO)NS(=O)(=O)c1cc(-c2n[nH]c(=O)c3ccccc23)ccc1C (stereo not given),65%[activator],36%[activator]
CCC(C)NC(=O)Cn1c(=O)n(-c2ccc(C)cc2)c(=O)c2ccccc21 (stereo not given),-2%,-8%
